# Screens: PubChem, National Center for Advancing Translational Sciences (NCATS)
# MARV entry inh – inhibitors of Marburg virus binding or cell entry; Marburg virus pseudotyped entry inhibition, cell reporter; control for the full effect not named in the record; about a third of the inactives were read at about 46 µM; Potency, µM (doses to about 37.8 µM), for inactives: at the highest dose activity change, negative = inhibition, usual class: inhibitors; actives 1.8% (n = 300,000); active = well fitted inhibition curve with a large enough effect; inconclusive = small, poorly fitted or top-dose-only effect, or effect the other way; inactive = flat fitted curve, though single readings scatter; tested in HEK293 cells; about a fifth of its hits are not listed in these tables; also: % is scaled to controls: 0 for no effect and ±100 for the full control effect; luciferase read-out
# 2A StopGo – FMDV 2A StopGo reporter, luciferase signal | human cells with a luciferase reporter of 2A StopGo recoding; control for the full effect not named in the record | Potency, µM (highest dose often 57.9 µM), without a hit: at the top dose signal change, negative = less light | actives 1.2% (n = 410,000); active = well fitted falling curve with a large enough effect; inconclusive = small, poorly fitted or top-dose-only effect; inactive = no such curve, though single readings can be large or run the other way; tested in HEK293T cells; also: % is scaled to controls: 0 for no effect and ±100 for the full control effect; nearly all actives have a fitted effect of over 45% in size; luciferase light after 4 h
# RE007 growth inh – less growth of the S. pombe RE007 Vpr strain; Potency, µM (titrated, usually from 92.2 µM), for inactives: at the top dose activity change, negative = less growth; actives 0.21% (n = 360,000); S. pombe RE007 Vpr strain, BacTiter-Glo ATP luminescence, 24 h; control for the full effect not named in the record; active = well fitted falling curve with a large enough effect; inconclusive = small, poorly fitted or top-dose-only effect; inactive = no such curve, though single readings can be large or run the other way;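 also: % is scaled to controls: 0 for no effect and ±100 for the full control effect; nearly all actives have a fitted effect of over 50% in size; the assay follows cell death caused by Vpr and the record does not say whether a fall means rescue or toxicity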
#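 Fission yeast strain RE007, carrying one chromosomally integrated HIV-1 vpr copy, was seeded at OD 0.01 in PMG+AL medium with 23 nL pinned compound. After 24 h at 30 °C and 99% humidity, viability was read by BacTiter-Glo luminescence.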
# SARS PLpro yeast – inhibitors of SARS-CoV papain-like protease in yeast | Potency, µM (series often up to 32.9 µM), for the others: at the top dose activity, positive = growth rescue | AID 485353 | S. cerevisiae expressing SARS-CoV PLpro, growth rescue; control for the full effect not named in the record | actives 0.19% (n = 330,000); active means well fitted rising curve with a large enough effect; inconclusive means small, poorly fitted or top-dose-only effect; inactive means no such curve, though single readings can be large or run the other way; also: 0% is about no effect; nearly all actives have a fitted effect of over 55% in size; growth read by luminescence after 48 h
# LASV entry inh – inhibitors of Lassa virus binding or cell entry | Potency, µM (top dose mostly 37.9 µM), for the others: top-dose activity change, negative = inhibition, usual class: inhibitors | actives 1.2% (n = 300,000) | Lassa virus pseudotype entry inhibition, cell reporter; control for the full effect not named in the record | AID 540256; active means well fitted inhibition curve with a large enough effect; inconclusive means small, poorly fitted or top-dose-only effect, or effect the other way; inactive means flat fitted curve, though single readings scatter; tested in HEK293 cells; also: % is scaled to controls: 0 for no effect and ±100 for the full control effect; nearly all actives have a fitted effect of over 50% in size; luciferase read-out
# Cruzain inh Det – cruzain (T. cruzi) inhibition with detergent; P25779; purified cruzain, Z-FR-AMC fluorescence, 0.01% Triton; Potency, µM, without a hit: max response, negative = inhibition, actives largely listed as inhibitors; actives 0.43% (n = 200,000); AID 1478;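 also: plate controls were neutral wells for no effect and buffer without enzyme for full effect; nearly all actives have a fitted effect of over 40% in size; top concentration of the series not given in the record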
# Target sequence (P25779 123-467 limits assumed): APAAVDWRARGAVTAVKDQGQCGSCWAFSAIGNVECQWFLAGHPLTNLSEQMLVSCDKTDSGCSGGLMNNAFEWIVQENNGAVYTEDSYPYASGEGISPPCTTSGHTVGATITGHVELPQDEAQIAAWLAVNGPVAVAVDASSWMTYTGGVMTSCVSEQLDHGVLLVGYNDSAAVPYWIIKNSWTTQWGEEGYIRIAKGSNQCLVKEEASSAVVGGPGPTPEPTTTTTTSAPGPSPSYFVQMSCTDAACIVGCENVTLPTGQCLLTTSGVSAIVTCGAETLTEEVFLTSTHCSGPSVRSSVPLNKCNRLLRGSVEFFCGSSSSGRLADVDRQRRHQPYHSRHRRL
#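 Detergent-containing arm of a paired screen for aggregation-based inhibition: 0.01% Triton X-100 present. Cruzain at 1.5 nM cleaved 2 uM Z-FR-AMC at pH 5.5 with 5 mM DTT; AMC fluorescence gain over 60 s measured activity.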
# Cruzain inh noDet – inhibitors of Trypanosoma cruzi cruzain without detergent. P25779. Potency, µM, for inactives: max response, negative = inhibition, hits mostly inhibitors. purified cruzain, Z-FR-AMC fluorescence, no detergent. actives 2.3% (n = 200,000);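 also: plate controls were enzyme without inhibitor for no effect and buffer without enzyme for full effect; nearly all actives have a fitted effect of over 40% in size; top concentration of the series not given in the record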
#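 Purified cruzain at 1.5 nM, pre-incubated 15 min with compound at room temperature in 100 mM sodium acetate pH 5.5, 5 mM DTT, 0.00005% Triton X-100. Reaction started with 2 uM Z-FR-AMC; AMC fluorescence increase over 60 s gives rate.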
# NS1 function inh – inhibitors of influenza NS1 protein function; S. cerevisiae slowed by influenza A NS1, growth recovery by OD600; Potency, µM (series often up to 46.1 µM), for the others: at the top dose activity, positive = more growth; actives 0.4% (n = 270,000); AID 2326; active means well fitted rising curve with a large enough effect; inconclusive means small, poorly fitted or top-dose-only effect; inactive means no such curve, though single readings can be large or run the other way; also: nearly all actives have a fitted effect of over 50% in size
#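 OD600 was taken as the measure of yeast growth restored by compound in an NS1-expressing S. cerevisiae strain. Cells had been washed out of glucose medium and diluted 1:100 into galactose -URA medium, pH 6.0.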
# The depositor's hits bear a star; ? = inconclusive; / = not tested or not shown; & = joins results of further samples; [ ] = another dose, or the depositor's remark. Unless noted, calls follow the shape of the dose curve; as a rule, active = well fitted curve in the direction sought with a large enough effect; inconclusive = small, poorly fitted or top-dose-only effect, or another doubt; inactive = no such curve, though single readings can be large; an effect the other way counts as inactive or inconclusive. Potency is read from the fitted curve at half-maximal effect. Rows are unselected; overall some 4.7% were active at least once.
SMILES,MARV entry inh,2A StopGo,RE007 growth inh,SARS PLpro yeast,LASV entry inh,Cruzain inh Det,Cruzain inh noDet,NS1 function inh
CCCCCN1C(C(=O)c2ccccc2)=C(NC(=O)c2ccccc2Cl)c2ccccc2S1(=O)=O,-4%[46.1 µM],-12%,/,/,?,-5.5%,10µM*,/
CC(C)C[C@H](NC(=O)NC(C)C)C(=O)O,-11%,5%,8%,2%,0%,2.5%,9%,6%
O=C(NNC(=O)C12CC3CC(CC(Cl)(C3)C1)C2)c1csc(N2CCOCC2)n1,7%[46.1 µM],1%,1%,3%,2%,/,/,13%
CC1(C)CC(C)(O)P(=O)(c2ccccc2)O1 (stereo not given),-7%&-7%,0%,26%,-2%,11%,8.3%,2%,-13%
Cc1cc([N+](=O)[O-])nn1CCCC(=O)Nc1cc(Oc2ccccc2)cc([N+](=O)[O-])c1,?,-22%,-22%,2%,6%,-6.4%,10%,4%
CC1Cc2ccccc2N1C(=O)c1cnsn1 (stereo not given),1%[46.1 µM],33%[activator],-22%,0%,4%,2.6%,-3%,4%
Cc1ccc(S(=O)(=O)N2CCC(C(=O)NCCCn3ccnc3)CC2)cc1,?,-2%,-7%,1%,8%,/,/,9%
O=C(c1ccc(N2CCCC2=O)cc1)N1CCN(c2ccc(Cl)cc2)CC1,/,-21%,-6%,-1%,/,/,/,-6%
CN(C)/C=N/c1cc(=O)n(Cc2ccccc2)c(=O)n1C,3%,-6%,19%,18%,15%,-2.9%&1.3%,-3%&-9%,-1%
O=C(O)CCn1c(SCCc2ccccc2)nc2ccccc21,-14%,5%,-6%,/,8%,/,/,/
CC1C/C(=C/c2ccccn2)C(=O)/C(=C/c2ccccn2)C1 (stereo not given),?,6.3µM*,63µM*,-4%,4µM*,/,/,/
Cc1ccc(OP(=O)(NC(C)c2ccccc2)Oc2ccc(C)cc2)cc1 (stereo not given),/,-3%,7%,0%,/,/,/,-2%
COc1cccc(CN2C(=O)C3(SCC(=O)N3c3ccc(C)c(Cl)c3)c3ccccc32)c1 (stereo not given),/,-27%,/,/,?,-5.7%,?,/
CC(C)(C)OC(=O)N1CCC(c2nnc(SCc3ccccc3F)o2)CC1,23%[46.1 µM],-23%,/,/,-26%[46.1 µM],-5.5%,22%,/
Cn1c(=O)n(C)c2cc(NC(=O)c3ccc(F)cc3)c(Br)cc21,?,-12%,2%,-1%,?,/,/,-3%
Cc1ccc(NC(=O)c2c(C(=O)Nc3ccccc3)sc3nc(C)cc(=O)n23)cc1,-25%&-8%[46.1 µM],6%&-21%,10%,-1%,2%[46.1 µM],-4.4%,3%,/
CC(=O)Nc1cccc(NC(=O)CSc2nccn2Cc2ccccc2)c1,?,?,6%,?,?,-0.5%,-1%,9%
CN(C)CCCOc1cccc(Cl)c1,?,4%,/,0%,24%,-2.5%,7%,-9%
O=C(CN1CCC(n2nnc3cc(C(F)(F)F)ccc32)CC1)NCc1cccs1,2.2µM*,?,21%,-6%,?,-3.3%,7%,-13%
Cc1cccc(NC(=O)CN2C(=O)COc3ccc(S(=O)(=O)N4CCC(C)CC4)cc32)c1C,/,1%,/,/,-5%[46.1 µM],-1.7%,-9%,/
CCOc1ccc(Nc2cc(C)nc3nc(C)nn23)cc1,0%,4%,7%,-11%,5%,1.5%,-2%,12%
COc1cc(C)ccc1OCC(=O)Nc1ccccc1N1CCOCC1,-12%,-2%,-1%,-1%,-20%,/,/,/
COc1ccc(NC(=O)c2sccc2OS(=O)(=O)N(C)C)cc1,0%[46.1 µM],9%,-15%,-2%,19%,/,/,-8%
O=C(/C=C/c1ccccc1)NCC(=O)N/N=C\c1cccnc1,-22%,3%,4%,11%,-9%,-1.2%,-7%,-1%
CN(C)CCN(C(=O)CN1C(=O)c2ccccc2C1=O)c1nc2cc3c(cc2s1)OCO3,6%,-12%,?,-1%,?,/,/,?
# Next records:
SMILES,MARV entry inh,2A StopGo,RE007 growth inh,SARS PLpro yeast,LASV entry inh,Cruzain inh Det,Cruzain inh noDet,NS1 function inh
Fc1ccccc1-c1nc2ccccc2[nH]1,?,40%[activator],?,-6%,10%,/,/,-34%
O=c1oc(-c2cccs2)nc2ccc(Br)cc12,2%,30%,-2%,-12%,4%,1.4%,-1%,-17%
O=C1c2ccccc2NC(c2ccc(-c3ccc(Br)cc3)o2)N1O (stereo not given),?,-16%,-16%,/,-7%,-19%,-22%,-204%
COc1ccc(CCNC(=O)C2CCN(S(=O)(=O)c3cc(OC)ccc3OC)CC2)cc1,10%&10%,?,-1%,-3%,10%,-2.6%,19%,-17%
Cc1cc2nc(-c3cccnc3SCC(=O)NCc3ccco3)[nH]c2cc1C,3%&3%,35%[activator],-25%,-31%,?,-16%,?,-12%
C=CCn1c(Cc2c[nH]c3ccccc23)nnc1SCC(=O)NCc1ccccc1,5%,10%,-8%[3.69 µM],2%,-5%,3.5%,-3%,1%
CCNC(=O)Cn1cc(C#N)c2ccccc21,-3%,-5%,8%,-5%,-3%,2.0%,?,5%
CCC1(c2ccc(F)cc2)NC(=O)N(CC(=O)NCc2ccc(C)cc2)C1=O (stereo not given),?,-5%,-1%,0%,-15%,/,/,-1%
COc1ccc(S(=O)(=O)N2CCOCC2)cc1NC(=O)Cc1ccsc1,1%,-6%,5%,-22%,-2%,/,/,/
CCOC(=O)C1=C(C)Nc2nc3ccccc3n2C1c1ccc(O)cc1 (stereo not given),/,-16%,-9%,1%,/,/,/,-2%
COC(=O)C[C@H](NC(=O)Cn1cnc(C(=O)Nc2ccc(C)c(C)c2)n1)C(=O)OC,2%,38%[activator],-4%,11%,/,/,/,/
COC(C[C@@H](O)C[C@@H](O)COCc1ccccc1)OC,/,-16%,-2%,-3%,/,/,/,4%
Nc1nc(SCC(=O)N2CCN(c3ccc(F)cc3)CC2)n[nH]1,?,-4%,2%,7%,9%,/,/,/
CC(=O)Nc1cccc(NC(=O)c2ccc(COc3ccccc3)cc2)c1,?,40%[activator],-3%,3%,?,/,/,13%
Cc1ccc(C)c(S(=O)(=O)N2CCN(C(=O)[C@@H]3CCCN3C(=O)c3cccs3)CC2)c1,4%,-22%,5%,1%,0%,/,/,/
Cc1cc(C)nc(NS(=O)(=O)c2ccc(NC(=O)Cc3ccccc3F)cc2)n1,3%[46.1 µM],69%[activator],-13%,-1%,-1%,/,/,0%
Cc1nc2c(C(=O)NCc3ccccc3)c[nH]n2c(=O)c1Cl,2%,14%,-1%,-4%,23%,-5.9%,8%,0%
CSc1ccc(C2c3c(-c4ccccc4O)n[nH]c3C(=O)N2Cc2ccncc2)cc1 (stereo not given),?,-5%,/,/,?,1.7%,20%,/
COCC(=O)NC(c1ccccc1)c1ccccc1,8%,-8%,7%,9%,19%,5.3%,-4%,?
CCN(CC)c1nc(-c2ccccc2)nc2ccccc12,?,?,-14%,-4%,-9%,/,/,-72%
N=C(N)SCCc1cnc[nH]1,13%&5%&13%&13%&13%&13%,-2%&0%&-13%,12%[18.4 µM],/,?,4.5%&-10%,-7%&-1%,-4%
O=C1NC(=O)/C(=C/c2ccccc2Oc2ccc(Cl)cc2)S1,21%,-19%,-22%,-6%,3%,1.7%,20µM*,1%
Cc1ccc2oc(C(=O)Nc3sc4c(c3C(=O)NCc3cccnc3)CCCC4)cc(=O)c2c1,-15%[46.1 µM],-6%,/,/,11%[46.1 µM],0.3%,-1%,/
O=C(N/N=C/c1cccc(OCc2ccccc2)c1)c1ccc(Br)cc1,-18%,-15%,4%,24%,-14%,-4.7%,?,19%

# A section from the list above:
SMILES,MARV entry inh,2A StopGo,RE007 growth inh,SARS PLpro yeast,LASV entry inh,Cruzain inh Det,Cruzain inh noDet,NS1 function inh
Fc1ccccc1-c1nc2ccccc2[nH]1,?,40%[activator],?,-6%,10%,/,/,-34%
O=c1oc(-c2cccs2)nc2ccc(Br)cc12,2%,30%,-2%,-12%,4%,1.4%,-1%,-17%
O=C1c2ccccc2NC(c2ccc(-c3ccc(Br)cc3)o2)N1O (stereo not given),?,-16%,-16%,/,-7%,-19%,-22%,-204%
COc1ccc(CCNC(=O)C2CCN(S(=O)(=O)c3cc(OC)ccc3OC)CC2)cc1,10%&10%,?,-1%,-3%,10%,-2.6%,19%,-17%
Cc1cc2nc(-c3cccnc3SCC(=O)NCc3ccco3)[nH]c2cc1C,3%&3%,35%[activator],-25%,-31%,?,-16%,?,-12%
C=CCn1c(Cc2c[nH]c3ccccc23)nnc1SCC(=O)NCc1ccccc1,5%,10%,-8%[3.69 µM],2%,-5%,3.5%,-3%,1%
CCNC(=O)Cn1cc(C#N)c2ccccc21,-3%,-5%,8%,-5%,-3%,2.0%,?,5%
CCC1(c2ccc(F)cc2)NC(=O)N(CC(=O)NCc2ccc(C)cc2)C1=O (stereo not given),?,-5%,-1%,0%,-15%,/,/,-1%
COc1ccc(S(=O)(=O)N2CCOCC2)cc1NC(=O)Cc1ccsc1,1%,-6%,5%,-22%,-2%,/,/,/
CCOC(=O)C1=C(C)Nc2nc3ccccc3n2C1c1ccc(O)cc1 (stereo not given),/,-16%,-9%,1%,/,/,/,-2%
COC(=O)C[C@H](NC(=O)Cn1cnc(C(=O)Nc2ccc(C)c(C)c2)n1)C(=O)OC,2%,38%[activator],-4%,11%,/,/,/,/
COC(C[C@@H](O)C[C@@H](O)COCc1ccccc1)OC,/,-16%,-2%,-3%,/,/,/,4%
Nc1nc(SCC(=O)N2CCN(c3ccc(F)cc3)CC2)n[nH]1,?,-4%,2%,7%,9%,/,/,/
